# H5N1 antiviral = antiviral screen in MDCK cells, H5N1 avian flu; inhibition, % at 50 µM; actives 0.07% (n = 96,000); cytopathic effect, luminescence, 72 h; hits give high values; no value below 0 was filed and about half of the inactive calls have no number; reference of the scale not given here; in the data active means inhibition above about 25%
# An asterisk follows results filed as active; i = inactive. Only part of the results is shown. The share of hits here may be higher or lower than overall.
SMILES,H5N1 antiviral
CCN(CC)CCNC(=O)CCc1nn(C)c(=O)c2ccccc12,0.9
CN(C)C(CNc1nnnn1-c1ccccc1)c1ccco1 (configuration not stated),0.8
Nc1n[nH]c(-c2ccccc2)c1-c1ccccc1,i
COc1cccc2cc(C(=O)N(C)C)c(=O)oc12,0.6
Cc1ccc(S(=O)(=O)N=Nc2c(O)[nH]c3ccccc23)cc1C,i
Cc1nnc(C)n1/N=C/c1cc(Br)ccc1O,0.5
COc1cnc(-c2ccccc2)nc1Oc1cccc(C)c1C,0.1
CCOc1cc(C2CC(=O)Nc3cc(C)c(C)cc32)ccc1O (configuration not stated),0.1
O=C(Nc1cc(=O)[nH]c2ncnn12)c1ccccc1Cl,0.6
CCOCCCNc1nc2ccccc2[nH]1,i
COc1ccc(C)cc1S(=O)(=O)NC1CCCCC1C (configuration not stated),1.9
CCOC(=O)N1CCN(CC(O)COc2c(OC)cccc2OC)CC1 (configuration not stated),0.9
COc1ccc2nc(NC(=O)Cc3ccc(OC)c(S(=O)(=O)N4CCOCC4)c3)sc2c1,2.2
Cc1ccccc1NC(=O)c1cc(S(=O)(=O)N2CCCCC2)cs1,0.1
Cc1cc2c(cc1C)NC(CC(=O)NCc1ccccc1)C(=O)N2 (configuration not stated),0.9
CCOC(=O)c1c(-n2c(C)cc(/C=C3\C(=O)NC(=O)N(C)C3=O)c2C)sc2c1CCCC2,0.2
CCCC(C)NS(=O)(=O)c1ccc(OC)c(C)c1 (configuration not stated),0.1
CCOC(=O)C(Sc1ncnc2c1sc1nc(N3CCOCC3)c3c(c12)CCCC3)c1ccccc1 (configuration not stated),i
O=C(CNC(=O)Cn1cnc2sc3c(c2c1=O)CCCC3)NCc1ccccn1,1.2
O=C(Nn1cnnc1)c1csc2ccccc12,i
CCC(C)(C)NC(=O)C(OC(=O)c1ccco1)c1ccccc1OC (configuration not stated),1.3
COc1cc(-c2nnc(COC(=O)C3c4ccccc4Oc4ccccc43)o2)cc(OC)c1OC,0.2
CCN1C(=O)C(CC(=O)N2CCN(C(c3ccccc3)c3ccccc3)CC2)N(CC)C1=O (configuration not stated),i
CCN(Cc1ccccc1)C(c1cc2cc(C)cc(C)c2[nH]c1=O)c1nnnn1CCOC (configuration not stated),i
CC(C)c1nnc(NC(=O)CN2C(=O)c3ccccc3C2=O)s1,0.7
Cc1onc(-c2c(F)cccc2Cl)c1C(=O)Nc1cccc(Cn2cccn2)c1,i
COC(=O)c1ccc(CSc2nnc(NC(=O)C3CCCO3)s2)cc1 (configuration not stated),0.8
COc1cccc(-n2c(O)c(C=NCc3ccc4c(c3)OCO4)c(=O)[nH]c2=O)c1,0.8
C/C(=C\C(=O)c1ccccc1)Nc1ccc(N2CCOCC2)cc1,i
O=C1CCC(=O)N1CCC(c1ccc(F)cc1)c1ccco1 (configuration not stated),2.6
CC(=O)OC(C(=O)NC1CCCCC1)c1ccccc1 (configuration not stated),0.1
O=C(Nc1ccccc1)c1ccccc1CCc1ccccc1,1.1
Cn1nc(-c2ccccc2)c(-c2nc(-c3cccc(Cl)c3)no2)c1Cl,i
COCc1cc(C)nc(Nc2ccc(C)c(C)c2)c1C#N,4.1
COc1ccc(C2Nc3ccc4ccccc4c3-c3c2c(=O)oc2ccccc32)cc1 (configuration not stated),i
COC(=O)c1cc(OC)c(OC)cc1NC(=S)N1CCCC(CO)C1 (configuration not stated),i
Cc1ccc(C(=O)C2=C(O)C(=O)N(CCCN3CCOCC3)C23C(=O)N(C)c2ccccc23)o1 (configuration not stated),0.3
Cn1c(Cl)c(/C=N/OC(=O)c2ccc(Cl)cc2)c2ccccc21,i
N#Cc1c(-c2ccccc2Cl)cc(C2CC2)nc1N,0.2
CCCCN(CC)CCCNC(=O)c1cc2cc3ccc(OC)cc3nc2o1,i
Cc1ccc(C)c(OCC(=O)NCCN(C)C)c1,i
COc1cc(NC(=O)C2CC(c3cccc(OC)c3OC)=NO2)cc(OC)c1OC (configuration not stated),0.5
COc1cc(NC(=O)C2CC(=O)NC3=C2C(=O)CCC3)c(OC)cc1Cl (configuration not stated),i
Cc1ccc(NC(=O)c2cc(N(C)C)ccc2[P+](=O)O)cc1,i
CCOc1ccccc1-c1nc2c([nH]1)c(=O)n(C)c(=O)n2C,3.9
NS(=O)(=O)c1ccc(NC(=O)Cn2ncc3c2-c2ccccc2OC3)cc1,i
COc1ccc2oc(C(=O)OCC(=O)c3ccc4c(c3)OCCO4)c(C)c2c1,2.0
CC1C(c2ccccc2)=[N+]([O-])C2(CCCCC2)N1O (configuration not stated),0.1
Sc1oc(-c2ccccc2)cc1C=Nc1ccccc1,i
Cc1cccc(N2CCN(C(=O)c3c(C)nn(Cc4ccccc4Cl)c3C)CC2)c1C,i
Cc1cccnc1NC(=O)C12CCC(C)(C(=O)O1)C2(C)C (configuration not stated),i
O=C1CCCC/C1=C/Nc1ccc2c(c1)OCO2,i
O=C(O)C1CC(O)CN1C(=O)c1ccco1 (configuration not stated),0.2
O=C1CC(c2ccccc2)n2nc(N3C(=O)CCC3=O)nc2N1 (configuration not stated),i
CCCCNC(=S)N/N=C1\C(=O)c2cccc3cccc1c23,i
C=CCn1c(CCNC(=O)c2cccs2)nnc1SCC(=O)Nc1cccc(C(C)=O)c1,i
COc1ccc(C(=O)Nc2ccc(OC)c(OC)c2)cc1,i
CCOC(=O)c1nc(NCc2cccnc2)c2ccccc2n1,0.1
CC1(C)CC(=O)C2=C(C1)Nc1[nH]c(=S)[nH]c(=O)c1C2c1ccccc1 (configuration not stated),0.1
CCCCn1c(SCC(=O)NCCc2ccc(OC)c(OC)c2)nc2c1c(=O)n(C)c(=O)n2C,1.9
# Continued:
SMILES,H5N1 antiviral
CCOc1cc(-c2c(C)c(CC)nc(N)c2C#N)ccc1O,0.7
C/C(Cl)=C\Cn1c(N2CCCCCC2)nc2c1c(=O)n(C)c(=O)n2C,0.0
CCOc1cc(CNc2ccc(N(C)C)cc2)cc(Br)c1OCC(=O)NC(C)(C)C,i
CCC(=O)Nc1cccc(-c2nc3ccccc3c(=O)o2)c1,0.6
CC(C)n1nnc2ccccc2c1=O,i
CC1CCN(S(=O)(=O)c2ccc(NN=C(C#N)C#N)cc2)CC1,0.6
Cc1ccccc1N(CC(N)=O)S(C)(=O)=O,0.0
Cc1cc(C(=O)NCCCN2CCOCC2)n(-c2ccccc2)n1,0.4
c1ccc(C2(Cn3ccc4ccccc43)OCCO2)cc1,0.4
COC(=O)CSc1nc(C)c(C(C)=O)cc1C#N,i
Cc1cc(C)n2nc(CC(=O)NC3CCCC(C)C3C)nc2n1 (configuration not stated),i
Clc1ccc(OCCN2CCN(c3ncnc4sccc34)CC2)cc1,2.2
Cc1ccc(Cl)c2c1NC(=O)C2(O)CC(=O)c1ccc(Br)cc1 (configuration not stated),0.5
O=C(NC1CCCCC1)C1CN(S(=O)(=O)c2ccccc2)CCN1S(=O)(=O)c1ccccc1 (configuration not stated),0.6
CCOC(=O)c1[nH]c2ccc(Br)cc2c1NC(=O)CCN1CCN(C(=O)OCC)CC1,1.4
Cn1cnc2cc(NC(=O)c3ccco3)ccc21,i
CCOC(=O)C(C)Sc1nnc(Cc2cc(=O)[nH]c(=O)[nH]2)n1-c1ccc(Cl)cc1 (configuration not stated),0.1
O=C(Nc1cccc(C(F)(F)F)c1)c1cc(-c2cccs2)on1,i
CC(NC(=O)c1ccccc1NC(=O)CSc1nnnn1C)c1ccccc1 (configuration not stated),0.8
O=C(Nc1ccccc1C(F)(F)F)c1cccnc1,1.5
O=S(=O)(NCC(c1cccnc1)N1CCN(Cc2ccccc2)CC1)c1ccccc1 (configuration not stated),1.8
C(=N\c1c(-c2ccccc2)nc2n1CCS2)/c1ccccc1,1.3
COc1cccc(C2CC(c3ccc(C)cc3)Nc3nc(N)nn32)c1 (configuration not stated),0.7
CCOC(=O)C1CCCN(CC(=O)Nc2c(C(=O)OC)[nH]c3ccc(Br)cc23)C1 (configuration not stated),i
CCCN(CCC)S(=O)(=O)c1cc(Br)cc2c1N(C(=O)CC)CC2,0.1
O=C1C(c2ccc(F)cc2)N(C2CCCCC2)C(=O)CN1C1CCCC1 (configuration not stated),0.8
CC(C)C[C@H](NC(=O)NCc1ccc(Cl)cc1)C(=O)O,i
CC1Cc2ccccc2N1C(=O)COc1cccc(-n2cnnn2)c1 (configuration not stated),i
Cc1nonc1NC(=O)c1ccc(Cl)c(S(=O)(=O)N2CCCCC2)c1,2.0
O=C(COC(=O)CC12CC3CC(CC(Br)(C3)C1)C2)NC(=O)NCc1ccco1,0.4
CN1C(=O)/C(=C2\SC(N)=NC2=O)c2ccccc21,0.2
COc1cccc(/C=N/Nc2nn3cnnc3c3ccccc23)c1O,0.8
Cc1cc(=O)[nH]c(SCC(=O)Nc2ccc(C(=O)O)cc2)n1,0.5
O=C(Cc1cscn1)c1ccc(O)cc1O,0.3
COc1ccc(-n2c(=O)[nH]cc(C(=O)Nc3ccc4c(c3)OCCO4)c2=O)cc1,9.8
CC1=C(C)C(=O)N(c2ccccn2)C1=O,i
Cc1ccc(OCC(=O)NNC(=O)CCc2ccccc2)cc1,1.7
Cc1cc(C)nc(NS(=O)(=O)c2ccc(NC(=O)CCN3C(=O)c4ccccc4C3=O)cc2)n1,i
CCc1nc2ccccc2[nH]1,i
Cc1cc(-c2nnc(-c3cc4ccccc4oc3=O)o2)c(C)n1-c1ccccc1,i
Cc1ccc(C(=O)Nc2ccc(-n3ccnc3P(=O)(O)c3ccccc3)cc2)cc1,i
Cc1ccc(SC(C)C(=O)Nc2ccccc2C(=O)N2CCOCC2)cc1 (configuration not stated),i
COC(=O)C1CCN(c2cc(=O)n(C3CCCCC3)c(=O)[nH]2)CC1,i
COc1ccc(S(=O)(=O)Nc2ccc(S(=O)(=O)N3CCOCC3)cc2)cc1,1.5
O=C(c1noc2c1CCc1ccccc1-2)N1CCc2ccccc2C1,i
Cc1ccc(N=C(NOC(=O)c2ccccc2)c2nonc2N)c(C)c1,i
c1ccc2c(c1)nc(N1CCOCC1)c1nncn12,1.4
CCOC(=O)c1c(NC(=O)CSc2nnnn2-c2ccc3c(c2)OCCO3)sc(C)c1C,i
CCN(CC)S(=O)(=O)c1ccc2oc(C(=O)NCC3COc4ccccc4O3)c(C)c2c1 (configuration not stated),5.2
O=C(COC(=O)c1cccc(C(=O)OCC(=O)c2ccc(Br)cc2)n1)c1ccc(Br)cc1,i
Cc1cc2c(cc1C)NC(c1ccccn1)C1=C(CC(C)(C)CC1=O)N2 (configuration not stated),0.7
O=C(Nc1ccc(Cc2ccncc2)cc1)C1CCC(N2C(=O)C3C4C=CC(C4)C3C2=O)CC1 (configuration not stated),2.6
CCN(CC(=O)Nc1c(C(=O)OC)[nH]c2ccccc12)c1ccc2c(c1)OCO2,i
COc1ccc(-c2cc(C(=O)O)c(C)o2)cc1OC,i
COc1ccc(OCC(=O)N2CCN(c3cccc(Cl)c3)CC2)cc1,0.8
O=C(Cn1c(=O)n2ncnc2c2c3c(sc21)CCCC3)c1ccccc1,7.1
Cc1cc(-c2ccccc2)nc(N(C)NC(=O)c2ccc(Cl)cc2)c1S(C)(=O)=O,i
CCC(CC)C(=O)Nc1cccc(C(=O)Nc2nccs2)c1,i
CN1C(=S)SC(/[N+]([O-])=C\c2ccco2)C1(C)C (configuration not stated),0.3
c1ccc(Cn2ncc3ccccc32)cc1,i

# Fetched by compound from the list above, 7 records:
SMILES,H5N1 antiviral
CCC(CC)C(=O)Nc1cccc(C(=O)Nc2nccs2)c1,i
Cc1cc(-c2ccccc2)nc(N(C)NC(=O)c2ccc(Cl)cc2)c1S(C)(=O)=O,i
c1ccc2c(c1)nc(N1CCOCC1)c1nncn12,1.4
COc1ccc(OCC(=O)N2CCN(c3cccc(Cl)c3)CC2)cc1,0.8
Cc1ccc(C(=O)Nc2ccc(-n3ccnc3P(=O)(O)c3ccccc3)cc2)cc1,i
CN1C(=S)SC(/[N+]([O-])=C\c2ccco2)C1(C)C (configuration not stated),0.3
CCN(CC(=O)Nc1c(C(=O)OC)[nH]c2ccccc12)c1ccc2c(c1)OCO2,i

# The main list resumes, repeating the two entries before the break.
SMILES,H5N1 antiviral
CN1C(=S)SC(/[N+]([O-])=C\c2ccco2)C1(C)C (configuration not stated),0.3
c1ccc(Cn2ncc3ccccc32)cc1,i
CCc1cccc(Nc2cc(C)nc3nc(C)nn23)c1,0.0
COc1cc(C(=O)OCc2cc3ccccc3[nH]c2=O)cc(OC)c1OC,0.1
CN1C(=O)c2ccccc2C(C(=O)NCC2CCCO2)C1c1c[nH]c2ccccc12 (configuration not stated),i
Nc1cccc(-c2nc3ccccc3s2)c1,i
Cc1nc(NC(=S)NC(=O)c2ccccc2)sc1C(=O)N(C)C,i
Cc1ccc(CCNC(=O)C2CCN(S(=O)(=O)c3ccc4c(c3)CCC(=O)N4)CC2)cc1,0.2
CCOC(=O)c1cnc2cc(-c3ccc(C(C)(C)C)cc3)nn2c1N,i
O=C1CCN(C(=O)c2ccccc2)C2CCCCC12 (configuration not stated),0.7
CCOC(=O)N1CCN(c2nc(-c3cccc(OC)c3)cc(C(F)(F)F)n2)CC1,0.3
CCOc1ccc2[nH]c(=O)c(CN(Cc3cccs3)C(CC)c3nnnn3C(C)(C)CC)cc2c1 (configuration not stated),7.7

# Structures above with a CF3 group (three):
SMILES,H5N1 antiviral
O=C(Nc1cccc(C(F)(F)F)c1)c1cc(-c2cccs2)on1,i
O=C(Nc1ccccc1C(F)(F)F)c1cccnc1,1.5
CCOC(=O)N1CCN(c2nc(-c3cccc(OC)c3)cc(C(F)(F)F)n2)CC1,0.3
